TRPML1 ag – human mucolipin-1 channel agonism. activation, % (test concentration not listed). Q9GZU1. TRPML1-expressing cells, Ca2+ dye fluorescence, FDSS; host cell line not named in the record; reference of the full effect not given here. actives 0.12% (n = 410,000); in the data active = activation above about 50%; inconclusive = about 30% to 50%; inactive = below about 30%; note: 0% is about no effect; the text of the record puts the active cut at 80%
Target sequence (Q9GZU1 whole entry, looked up): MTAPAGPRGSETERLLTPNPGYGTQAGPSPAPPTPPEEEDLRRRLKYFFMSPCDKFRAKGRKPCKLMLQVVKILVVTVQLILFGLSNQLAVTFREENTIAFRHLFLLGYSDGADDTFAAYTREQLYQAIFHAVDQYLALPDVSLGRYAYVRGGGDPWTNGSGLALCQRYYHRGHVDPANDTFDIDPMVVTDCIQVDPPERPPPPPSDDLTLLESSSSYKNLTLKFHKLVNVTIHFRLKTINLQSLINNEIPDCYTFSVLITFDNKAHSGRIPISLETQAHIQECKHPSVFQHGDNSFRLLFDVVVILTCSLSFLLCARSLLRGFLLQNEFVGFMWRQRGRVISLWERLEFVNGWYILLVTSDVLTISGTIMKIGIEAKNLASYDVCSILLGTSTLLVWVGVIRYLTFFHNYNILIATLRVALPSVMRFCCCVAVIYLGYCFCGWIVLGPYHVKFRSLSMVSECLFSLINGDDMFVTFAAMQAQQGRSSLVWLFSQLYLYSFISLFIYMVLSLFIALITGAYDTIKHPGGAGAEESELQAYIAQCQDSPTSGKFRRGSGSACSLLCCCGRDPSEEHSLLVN
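Tet-induced TRPML1-DL cells, 1,500 per well, cultured overnight, were loaded with a no-wash Ca2+ dye for 45–90 min. Calcium fluorescence was recorded on the FDSS for 110 s after compound addition, before the EC80 agonist (4 uM 54-4) was added.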
gsp ag – agonists of gsp mutant (McCune-Albright syndrome); gsp mutant cells, cAMP HTRF, 30 min; control for the full effect not named in the record; Potency, µM (top dose mostly 76.9 µM), without a hit: at the top dose activation (cAMP increase), most hits filed as activators; actives 0.13% (n = 340,000); AID 624287; active = well fitted activation curve with a large enough effect; inconclusive = small, poorly fitted or top-dose-only effect, or another doubt; inactive = no such curve, though single readings can be large or run the other way; cell line not stated here;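 note: phosphodiesterase inhibitor Ro 20-1724 added with compounds to block cAMP breakdown; potency is the fitted concentration of half-maximal effect; nearly all actives have a fitted effect of over 60% in size; about a fifth of the inactives were tested at one dose only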
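Cells in DMEM/10% FBS with G418 were pretreated with compounds in DMSO plus […] (300 uM stock) for 30 min at 37C. cAMP was measured by HTRF (cAMP-d2 plus anti-cAMP antibody-K) after 30 min at room temperature.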
Menin MLL FP FL – menin-MLL binding inhibition, fluorescein peptide; 290,000 tested, under 10 active; Fluorescence polarization, fluorescein-MLL peptide displacement from menin; AID 1766; FP activity change, % at 61.4 µM; inconclusive = falling polarisation curve, or a change in total fluorescence; inactive = total fluorescence flat and polarisation flat or rising; no compound was filed as active; the % refers to the polarisation; negative = inhibition;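 note: % of control where 0% means no effect; inhibitors lower the polarisation; unlabelled MLL peptide was the positive control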
gsp antag – antagonists of gsp mutant (McCune-Albright syndrome). actives 0.4% (n = 340,000). Potency, µM (top dose mostly 76.9 µM), for the others: top-dose activity change, negative = inhibition, actives largely listed as inhibitors. gsp-mutant cells, cAMP HTRF, 30 min; control for the full effect not named in the record; active = falling curve of any shape with a large fitted effect; inconclusive = falling curve, mostly with a smaller effect; inactive = flat or rising curve; cell line not stated here;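 note: intracellular cAMP measured with PDE inhibitor Ro 20-1724 present during compound exposure; potency is the fitted concentration of half-maximal effect; % is set by controls: 0 for no effect and ±100 for the full control effect; nearly all actives have a fitted effect of over 65% in size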
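Cells, 2000/well, grown 16–24 h in DMEM 10% FBS with 0.5 mg/ml G418, then compounds plus […] (300 uM addition stock), 30 min at 37C. cAMP read by HTRF (cAMP-d2 and anti-cAMP antibody-K in lysis buffer) after 30 min RT.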
TRPML1 blocker – blocks the human TRPML1 channel | TRPML1-inducible cells, Ca2+ dye fluorescence, FDSS; stronger effect = lower value; inhibition of EC80 agonist-evoked calcium signal | activity change, negative = inhibition, % (concentration not given with the values) | actives 0.02% (n = 390,000) | Q9GZU1; in the data active means activity change below about -50%; inconclusive means about -30% to -50%; inactive means above about -30%;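 note: stimulus is agonist 54-4 at its EC80 concentration; % is set by controls: 0 for no effect and ±100 for the full control effect; compound concentration not given in the record; the text of the record puts the active cut at -80%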
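TRPML1-DL cells, Tet-induced overnight (~16 h, 37 °C) at 1,500 cells/well, were loaded with Ca8 no-wash dye plus quencher for 45-90 min at room temperature. Compounds were pinned during FDSS kinetic reading; agonist 54-4 at EC80 (4 uM final) then added.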
ClpP mod – qHTS Assay for Activators of ClpP | ATP-dependent Clp protease proteolytic subunit (Bacillus subtilis (strain 168)), P80244 | purified B. subtilis ClpP, FRET peptide cleavage, 20 min | Potency, µM (highest dose often 57.5 µM), without a hit: at the highest dose activity change, negative = active | actives 1.9% (n = 340,000) | AID 651965, 2013; active = well fitted falling curve with a large enough effect; inconclusive = small, poorly fitted or top-dose-only effect; inactive = no such curve, though single readings can be large or run the other way; note: potency is the fitted concentration of half-maximal effect; the source files actives as falling curves though it sought activators and does not explain the sign; nearly all actives have a fitted effect of over 65% in size; many hits overshoot -100%
Target sequence (P80244 whole entry, looked up): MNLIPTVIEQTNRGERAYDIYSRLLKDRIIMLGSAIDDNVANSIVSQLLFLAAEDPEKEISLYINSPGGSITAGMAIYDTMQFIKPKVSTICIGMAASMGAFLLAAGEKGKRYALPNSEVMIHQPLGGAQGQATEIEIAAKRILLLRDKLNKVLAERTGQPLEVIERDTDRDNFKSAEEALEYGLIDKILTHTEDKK
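FRET quenching reversal measured ClpP activation: 10 microg/mL B. subtilis ClpP at pH 8 with the FRET-FV decapeptide, read at 430 nm after 320 nm excitation. The 20-min minus 0-min signal was scaled between DMSO/no-enzyme wells and ADEP (5.8 microM final).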
Active calls of the source: *; ? = inconclusive; / = not tested or not shown; & = joins results of further samples; [ ] = remark or other dose.

mol	TRPML1 ag	gsp ag	Menin MLL FP FL	gsp antag	TRPML1 blocker	ClpP mod
Cc1ccccc1-n1c(SCC(=O)N2CCCC2)nnc1-c1ccccn1	5.0	0%	1.8	0%	-6	-9.3%
Cc1cc2nc(-c3ccc(SCC(=O)Nc4ccc5c(c4)OCCO5)nc3)[nH]c2cc1C	-0.4	-4%	/	10%	0	63%
Cn1c(-c2ccccc2)cnc1SCC(=O)N1CCCCC1	-1.0	0%	4.8	4%	-4	-8.3%
CC(=O)NC(C)CCc1ccccc1 (stereo not drawn)	2.4	5%[15.4 µM]	4.3	9%	4	/
O=C(NC(c1ccccc1)C(Cl)(Cl)Cl)c1ccccc1 (stereo not drawn)	2.7	-4%	1.9	-18%	-10	-3.6%
CCOc1cc(/C=N/NC(=O)c2cccs2)cc([N+](=O)[O-])c1O	0.4	5%[15.4 µM]	-1.6	-22%	-6	/
Cc1cc(=O)[nH]c(-n2ncc(C#N)c2N)n1	0.0	-2%[15.4 µM]	-2.8	-8%	6	/
Cc1ccccc1C(=O)Nc1sc2c(c1C(=O)N1CCC(C)CC1)CCCC2	0.5	/	/	/	-10	-0.8%
O=C(O)c1ccc(N/N=C/c2c[nH]c3ccccc23)cc1	4.2	0%	4.8	-3%	9	-23%
CCCCN(CCCNC(=O)Cn1nc(CC)n2c(cc3sc(C)cc32)c1=O)Cc1ccccc1	2.6	-10%	2.1	15%	13	3.1%
O/N=C(/c1ccccc1)c1cc2cc(Br)cc(Br)c2o1	-0.7	-4%[15.4 µM]	6.1	1%	-6	-2.2%
N#Cc1ccc(S(=O)(=O)N2CCN(C(=O)c3cn(-c4ccccc4)nc3-c3cccnc3)CC2)cc1	0.2	?	/	1%	-10	-8.3%
CC(OC(=O)Cc1ccccc1[N+](=O)[O-])C(=O)Nc1ccc(Cl)cn1 (stereo not drawn)	2.3	-23%[15.4 µM]	/	3%	13	/
O=C(/C=C/c1ccc2c(c1)OCO2)NCCCN1CCOCC1	0.4	-12%	5.0	8%	-8	16µM*
CC(=O)Nc1ccc(Oc2cnc3ccccc3n2)cc1	-0.5	-7%	7.5	0%	-3	0.7%
O=S(=O)(c1ccc2nc(N3CCN(c4ccccc4)CC3)ccc2c1)N1CCCCC1	0.6&-0.1	-6%	/	-3%	-6&3	-9.8%&-12%
CCSc1nc2sc3c(c2c(=O)n1-c1ccc(C)cc1)CCCC3	2.7	/	/	/	3	-4.1%
CC(C)(C)OC(=O)N1CCC(CNC(=O)c2cccs2)CC1	1.0	5%[15.4 µM]	5.0	-2%	-9	/
CCCCNC(=O)O[C@H]1C[C@@H]2CCN3C(=O)CCC[C@H]([C@H]1Cc1ccccc1)[C@H]23	-0.5&-0.5	/	2.9	3%	7	0.1%&0.7%
Cc1ccccc1-c1cc(C(=O)n2cccn2)c2cc(Cl)ccc2n1	-0.5	?	1.6	8%	0	-5.8%
COc1cccc(-c2cc(C(=O)NCC3CCCO3)c3cc(Br)cc(C)c3n2)c1 (stereo not drawn)	1.0	?	-1.4	-16%	2	?
CCOc1ccccc1NC(=O)C1CCN(S(=O)(=O)c2c(C)noc2/C=C/c2ccco2)CC1	1.0	/	/	/	-9	-8.6%
O=C(Nc1ccc(N2CCN(C(=O)c3cccs3)CC2)cc1)c1cccnc1	-0.9	4%	-1.4	-10%	-7	/
CCCC(=O)Nc1ccc(Cl)c(NC(=O)c2ccco2)c1	3.8	-15%	1.5	-3%	-2	1.2%

Part of the list above, with each value named.
> O=C(O)c1ccc(N/N=C/c2c[nH]c3ccccc23)cc1
  TRPML1 ag: 4.2 | gsp ag: 0% | Menin MLL FP FL: 4.8 | gsp antag: -3% | TRPML1 blocker: 9 | ClpP mod: -23%
> CC(C)(C)OC(=O)N1CCC(CNC(=O)c2cccs2)CC1
  TRPML1 ag: 1.0 | gsp ag: 5%[15.4 µM] | Menin MLL FP FL: 5.0 | gsp antag: -2% | TRPML1 blocker: -9 | ClpP mod: /
> CCSc1nc2sc3c(c2c(=O)n1-c1ccc(C)cc1)CCCC3
  TRPML1 ag: 2.7 | gsp ag: / | Menin MLL FP FL: / | gsp antag: / | TRPML1 blocker: 3 | ClpP mod: -4.1%

Further structures
mol	TRPML1 ag	gsp ag	Menin MLL FP FL	gsp antag	TRPML1 blocker	ClpP mod
CC[C@H](C)[C@@H]1NC(=O)c2cc([N+](=O)[O-])cc(F)c2OCC[C@@H](C(N)=O)NC(=O)[C@H](CCCCN)NC1=O	-0.8	/	4.5	13%	-18	-3.2%
CCOC(=O)c1cccc(NC(=O)CN(C)S(=O)(=O)c2cnc[nH]2)c1	-0.6	-30%	0.3	17%	-3	-1.2%
COc1ccccc1N1CN(Cc2ccccc2)CNC1=S	-0.1	-7%[15.4 µM]	0.3	12%	-6	-0.7%
Cc1n[nH]c(=O)c2c(NC(=O)CSc3ccc(F)cc3)oc(C)c12	-0.9	?	/	0%	6	-1.9%
Cc1c(C(=O)O)oc2ccc(S(=O)(=O)NC3CCCCCCC3)cc12	0.2	-3%[15.4 µM]	0.3	7%	10	1.3%
Cc1cccc(NC(c2ccc(C)s2)c2ccc3ccc(C)nc3c2O)n1 (stereo not drawn)	-0.4	-8%[15.4 µM]	1.3	0%	18	-1.0%
CCOc1ccc(CNC(=O)CCCOc2cc(=O)n(C)c3ccccc23)cc1	-0.1	3%	2.6	6%	13	-1.8%
COc1cccc2cc(C(=O)N3CCN(c4ccc(C)cc4C)CC3)c(=O)oc12	1.3	-37%[inhibitor]	-0.4	-9%	-1	-1.3%
Cc1cccc(NS(=O)(=O)c2ccc3c(c2)Cc2cc(S(=O)(=O)Nc4cccc(C)c4C)ccc2-3)c1C	-0.6	-2%	4.7	-22%	30	2.1%
COc1ccc(N2C(=O)CC(Sc3nc4ccccc4s3)C2=O)cc1OC (stereo not drawn)	0.3	-67%[inhibitor]	2.2	0%	0	-3.9%
CCC(C)NC(=O)c1[nH]c2cc(OC)ccc2c1Sc1ccc(C)cc1 (stereo not drawn)	0.0	/	/	/	3	28µM*
COc1cccc(CN2CCN(Cc3nc4c(s3)CCCC4)CC2CCO)c1 (stereo not drawn)	0.5	-1%	4.0	4%	21	-1.7%
COc1cccc(-c2n[nH]c3c2C(c2cccc(O)c2)N(C)C3=O)c1 (stereo not drawn)	0.7	/	/	/	-12	-1.4%
COc1ccccc1C(=O)Nc1ccc(N2CCN(Cc3ccccc3)CC2)cc1	-1.8	0%	0.0	-11%	2	1.0%
CCc1ccc(S(=O)(=O)N(C(C)=O)c2ccc3oc4c(c3c2)CCCC4)cc1	21	/	/	/	-2	-2.1%
C[C@@H](C(=O)NCC1CC1)[C@H]1C[C@]1(C)[C@H](NC(=O)OCc1ccccc1)c1ccccc1	1.3	19%	-3.2&-3.0	-15%	-9	-2.4%
COCCNC(=O)c1ccc(CSc2nc3ccccc3s2)cc1	0.1	-8%	-6.5	-11%	1	-3.2%
O=C(Nc1ccccc1)C1CCCN(C(=O)c2ccc(Cl)cc2)C1 (stereo not drawn)	0.5	2%[15.4 µM]	-4.4	0%	-12	/
Cn1c(SCC(=O)Nc2cccc3ccccc23)nc(O)cc1=O	0.0	20%	-1.4	-10%	-5	-0.7%
O=C(CN1CCCCC1)Nc1scc2c1c(=O)oc1ccccc12	0.6	19%	-6.7	-25%	16	1.0%
O=C(CN1C2CCCC1CC(NC(=O)c1ccccc1)C2)Nc1ccccc1 (stereo not drawn)	-0.7	14%[15.4 µM]	-6.0	-19%	8	/
O=C(CCC(=O)OCC(=O)c1ccc(F)cc1)NC1CCCCC1	-0.1	2%	1.5	9%	18	1.8%
COc1ccc(-n2nc3c(N4CCC(C(=O)NCCc5ccccc5)CC4)nnc(C)c3c2C)cc1	0.0	/	/	/	-8	?
COC(=O)c1ccc(N=C2S/C(=C\c3cc(C)n(-c4cccnc4)c3C)C(=O)N2C)cc1	26	-4%	7.2	-4%	1	-6.7%
CCn1c2ccccc2c2nc3cc(OC)c(OC)cc3nc21	2.8	?	-1.0	-8%	3	?
O=C(Nc1ccc2c(c1)OCO2)c1c(Cl)nc2sccn12	0.4	?	0.2	0%	9	-21%
CCCc1cc(=O)oc2cc(C)cc(OC(C)C(=O)NCc3ccncc3)c12 (stereo not drawn)	1.0	-44%[inhibitor]	-0.6	-1%	21	3.5%
CN(CC(=O)Nc1ccc(Cl)cc1)CC(=O)Nc1cc(Cl)ccc1C#N	-0.3	26%	-0.5	?	-2	-2.1%
CC(Sc1ccsc1[N+](=O)[O-])C(=O)N1CCN(c2ccccn2)CC1 (stereo not drawn)	0.1	-2%	0.6	14%	0	-0.5%
CCOC(=O)c1[nH]c2ccc(OCC)cc2c1NC(=O)CN1CCN(c2ccccc2)CC1	0.4	-8%	0.6	4%	-6	?
CC1Cn2c(nc3sc4c(c3c2=O)CC(C)(C)OC4)N1CCO (stereo not drawn)	0.6	15%	-6.5	2%	23	-22%
N#C/C(=C\c1ccc(-c2ccc([N+](=O)[O-])cc2Br)o1)C(=O)N1CCN(c2ccccc2)CC1	0.2	6%	-0.3	4%	2	-2.4%
O=C(N/N=C/c1ccccc1C(=O)O)C(=O)N1CCCCC1	-0.7	14%	2.0	2%	-24	/
CNC(=O)COc1ccc(NC(=O)c2ccc(-c3nn(C)c(=O)c4ccccc34)cc2)cc1	-0.1	/	/	/	8	0.9%
COC(=O)c1cc(S(=O)(=O)N2CCOCC2)ccc1Sc1ccccc1N	-0.1	-9%	-0.3	-12%	-16	-1.4%
O=C(CCCC(=O)N(CC(=O)NC1CCCCC1)Cc1ccc2c(c1)OCO2)Nc1ccccn1	-1.4	8%	1.3	3%	-5	-1.9%
COC(=O)c1ccccc1NC(=S)NC(=O)c1ccc2c(c1)OCO2	0.3	1%	/	10%	5	-21%
CCOc1ccc(CN(C(=O)c2cc(=O)c3cc(Cl)ccc3o2)C2CCS(=O)(=O)C2)cc1 (stereo not drawn)	2.6	/	/	/	-10	2.6%
CSCCC(NC(=O)c1ccco1)C(=O)N1CC(C)OC(C)C1 (stereo not drawn)	-0.3	-7%	/	13%	20	-0.2%
Cc1ccc2cc3cc(C(=O)N(C)c4ccccc4C)oc3nc2c1	-0.7	/	/	/	-17	-2.5%
